Sa ugtP lethal – growth inhibition of S. aureus ugtP deletion strain; S. aureus RN4220 ugtP deletion, OD600 growth, 16 h; some inactives read as strong as hits; AID 1259309; actives 0.54% (n = 330,000); growth inhibition, % (test concentration not listed);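 active means z-score under -3 and OD600 up to 0.15 on both plates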;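 further: plate controls were untreated wells for no effect and antibiotic for full effect; wells of about 80 µL received 100 nL stock; the first replicate is given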
PrP UTR inh – suppresses PrP 5' UTR mRNA reporter expression; cell-based PrP 5' UTR mRNA reporter, plate reader; AID 488862; actives 0.35% (n = 340,000); inhibition, % (test concentration not listed);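 active means every replicate at 50% or more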;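 further: 0 = median of the neutral control wells; tested in H4 reporter cells; numbers are from one replicate; inactives centre near -14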
BJeLR viability – BJeLR cell viability loss; BJeLR (HRASV12) viability, CellTiter-Glo ATP luminescence, 48 h; reference of the scale not given here; inhibition, % (concentration not given with the values); actives 0.17% (n = 300,000); AID 1554;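 active means replicate mean above 50%; inconclusive means above 50% but judged a plate artefact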;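 further: 50 nL library stock added to about 25 µL; numbers are from one replicate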
RN4220 kill – kills Staphylococcus aureus RN4220. S. aureus RN4220 growth, OD600, 16 h. inhibition, % (test concentration not listed). actives 0.33% (n = 330,000). AID 1259311;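 active means z-score of -3 or lower and OD600 up to 0.18 on both plates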;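 further: plate controls were untreated cells for no effect and reference antibiotic for full effect; stock transfer was 100 nL into about 80 µL; one replicate is shown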
Bead autofluor – counter-screen for toxin protease inhibitors: compound fluorescence; compound autofluorescence counterscreen, microsphere flow cytometry; stronger effect = higher value; actives 3.1% (n = 360,000); fluorescence intensity (concentration not given with the values);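 active means at least 3 SD above the mean of all compounds, about 16000 in these data; inconclusive means too few beads counted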;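 further: 100 nL of 1 mM stock went into each well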
Mtb hypoxia inh – reduces hypoxia-regulated biosensor signal in M. tuberculosis; M. tuberculosis hypoxia-regulated fluorescent reporter, fluorescence; fluorescence inhibition, % (test concentration not listed); actives 0.1% (n = 300,000);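 active means 35 to 45% if threefold the growth effect, above 45% if 1.5-fold the growth effect; inactive means the rest, general growth blockers included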;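 further: wells of about 50 µL received 100 nL stock; 0% = vehicle wells and 100% = reference inhibitor wells; whole bacteria with a GFP reporter of the hypoxia response; strong numbers were not always called active; many hits fall short of the cut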
Mtb hypoxia inh growth – also measured in Mtb hypoxia inh; calls as there; growth inhibition, %; measured here: M. tuberculosis growth (absorbance);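 0% = vehicle and 100% = reference antibiotic; read after six days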
* = called active by the depositor; ? = inconclusive; · = no result given.

Under each structure: Sa ugtP lethal	PrP UTR inh	BJeLR viability	RN4220 kill	Bead autofluor	Mtb hypoxia inh	Mtb hypoxia inh growth
c1ccc(N2CCN(c3nc4cc5c(cc4s3)OCCO5)CC2)cc1
 : 7.6	-97.0	6.9	6.0	8783	18.9	14.8
O=C(NC1CC1)c1cc(Cl)ccc1[N+](=O)[O-]
 : -4.5	-18.3	2.4	-0.6	9782	-7.1	2.2
O=C(NCCn1c(C(F)(F)F)nc2cc(C(F)(F)F)ccc21)[C@H]1CCCN1c1nc(CN2CCCCC2)cs1
 : -2.6	-15.5	1.9	-9.6	3802	5.3	0.5
O=C(CSc1nc2cc3c(cc2c(=O)n1CCC1=CCCCC1)OCO3)NCc1ccco1
 : 0.3	-32.3	-1.2	2.1	8722	2.5	1.9
Cc1ccc(-c2csc3ncnc(-n4nc(C)cc4N)c23)cc1
 : -4.2	-19.5	-6.1	-15.3	3133	20.9	-14.5
CCOC(=O)C1CCN(C(=O)c2ccccc2NC(C)=O)CC1
 : 4.3	-16.5	-1.3	2.9	2982	11.3	10.6
CC(C)(C)C(=O)CC1(O)C(=O)N(Cc2ccc(Cl)cc2)c2ccccc21 (stereo not given)
 : -8.0	5.8	-1.8	0.8	4608	-1.0	-5.0
COc1cccc(C=Nn2cncn2)c1OCC#N
 : 14.3	·	·	1.8	·	2.4	-0.8
CSc1ccc(CN(C)C(=O)CNC(=O)CNS(=O)(=O)c2ccc(C)c(C)c2)cc1
 : 5.1	3.6	-7.6	2.7	5462	-3.3	0.2
Cc1cc(=O)[nH]c(NN=Cc2ccc(OC(=O)c3ccco3)cc2)n1
 : -0.2	·	·	0.7	·	3.5	3.2
Cc1c(C(=O)OC(C)C)nnn1-c1nonc1N
 : 6.6	-16.9	-4.7	6.4	3912	3.6	6.9
C=CCn1c(O)c(C(CC)=NCCc2c[nH]c3ccccc23)c(=O)[nH]c1=O
 : -1.0	-16.6	-2.0	5.4	5058	10.9	4.5
Clc1ccc(CN2CCN(c3ncccn3)CC2)cc1Cl
 : 3.5	1.1	-3.4	1.1	3734	0.1	3.5
CCC(=O)Nc1ccc(-c2ccc(N3CCCCC3)nn2)cc1
 : 3.3	-68.8	-2.9	3.0	5507	6.1	5.2
CCOC(=O)c1cc(C(=O)OCC)c2ccccn2c1=O
 : 1.8	-7.1	-1.9	1.4	2833	·	·
Nc1cc(=O)[nH]c(SCC(=O)N2CCc3ccccc3C2)n1
 : -3.1	-23.5	·	2.3	20269*	6.0	4.6
CS(=O)(=O)N(CC(=O)NCc1ccncc1)c1cc(Cl)ccc1Cl
 : 4.1	-42.4	-3.2	0.3	4626	-0.7	-13.8
CCc1cc(CNC(=O)CC2C(=O)NCCN2Cc2c(F)cccc2Cl)on1 (stereo not given)
 : -5.4	-11.5	-9.9	3.1	2657	6.3	9.1
N#Cc1ccccc1Cn1cc(C=NNc2ccc([N+](=O)[O-])cn2)c2ccccc21
 : -19.0	·	·	-5.6	·	-7.5	-0.5
NCCC(=O)NCCc1cnc[nH]1
 : -0.7	4.5	·	6.6	4409	6.5	2.6

Following part:
Under each structure: Sa ugtP lethal	PrP UTR inh	BJeLR viability	RN4220 kill	Bead autofluor	Mtb hypoxia inh	Mtb hypoxia inh growth
CCc1nnc(NN=Cc2ccc(-c3ccc([N+](=O)[O-])cc3)o2)n1N
 : -19.0	·	·	8.9	·	16.3	1.5
CC1CCCC(=NNS(=O)(=O)c2ccccc2)C1 (stereo not given)
 : 9.0	·	·	4.0	·	3.9	8.9
Clc1ccc(-c2nnc(-c3ccccc3)nc2N2CCSCC2)cc1
 : 9.8	-14.1	1.7	-1.1	8778	13.2	22.3
CC(C)C(OC(=O)c1cccc(S(=O)(=O)NCC(F)(F)F)c1)C(=O)NC(N)=O (stereo not given)
 : 3.7	-12.2	-7.4	-0.1	4451	16.1	3.4
COc1ccc(S(=O)(=O)NC(C(=O)OCC(=O)Nc2ccc(N3CCOCC3)cc2)C(C)C)cc1 (stereo not given)
 : -1.1	0.8	·	1.4	5619	-5.8	5.3
CC(=NNc1ccc(Cl)cc1)c1c(O)cc(C)oc1=O
 : -2.9	·	·	2.6	·	2.3	6.8
O=C(Cn1cnc2c(OCc3ccccc3)ncnc21)N[C@H](CO)Cc1cc2ccccc2[nH]1
 : 1.2	-10.0	·	2.6	3873	-7.8	-4.9
COc1ccc(C2C(C(C)=O)=C(O)C(=O)N2c2nccs2)cc1 (stereo not given)
 : -1.5	-2.1	-6.3	-0.5	2836	·	·
CN(C(=S)Nc1ccc(F)cc1)C(c1ccccc1)c1ccccc1
 : 1.4	-2.1	-1.2	-6.7	4260	1.1	0.4
O=C(Oc1ccc(Cl)cc1)N1CCCCC1
 : -1.9	-48.3	-3.2	7.2	9380	·	·
COc1cccc(/C=C2/SC(=S)N(CC(=O)Nc3nnc(C)s3)C2=O)c1
 : -2.7	-0.7	·	-5.4	6018	-4.7	6.1
COc1cccc(C(=O)OCCN(C)C(C)(C)C)c1
 : -10.1	·	0.8	-10.5	·	-2.9	8.5
C=C(C)CNC(=S)NNC(=O)c1ccncc1
 : 7.3	-20.2	-1.9	1.2	4353	2.0	6.3
Cc1ccccc1C(=O)N1CCC(C(=O)Nc2ccccc2Cl)CC1
 : 2.5	-24.4	1.7	0.2	6191	5.0	-0.1
CCn1c(SCC(=O)NN=C/C=C/c2ccco2)nnc1-c1ccc(OC)cc1
 : -1.7	·	·	-1.3	·	13.1	0.6
Cc1[nH]c(=O)[nH]c(=O)c1C=NNC(=O)[C@H](CC(C)C)NC(=O)OC(C)(C)C
 : -2.0	·	·	-18.6	·	1.8	9.4
Cc1ccccc1-n1c(O)c(/C=N/NC(=O)c2ccncc2)c(=O)[nH]c1=O
 : -4.5	-19.5	-1.0	0.4	6238	·	·
CCOc1ccc(CCNC(=O)CCNS(=O)(=O)c2ccc(Br)cc2)cc1OCC
 : 6.4	-6.5	11.3	4.1	4655	4.3	7.4
N#Cc1ccccc1CSc1nnc(Cc2ccccc2)o1
 : 7.8	-17.5	19.1	8.7	2162	2.6	9.2
CN(CC(=O)Nc1ccccc1Cl)C(=O)c1ccccc1Sc1ccccc1C#N
 : 5.9	-7.0	-4.4	8.5	?	4.3	6.9

The listing continues.
Under each structure: Sa ugtP lethal	PrP UTR inh	BJeLR viability	RN4220 kill	Bead autofluor	Mtb hypoxia inh	Mtb hypoxia inh growth
Cc1ccc2c(CN(C)Cc3ccc(Cl)cc3)cc(=O)oc2c1
 : 8.8	-23.3	-5.1	3.1	3790	-6.1	-1.8
NNS(=O)(=O)c1ccc(N2CCCC2=O)c([N+](=O)[O-])c1
 : 6.8	-7.9	-3.3	7.3	3080	11.6	10.3
CCOC(=O)CCC(NC(=O)CC(=O)NC(CCC(=O)OCC)C(=O)OCC)C(=O)OCC (stereo not given)
 : 8.8	-30.2	3.2	8.3	4983	5.7	5.9
Cc1ccc(N(CC(=O)Nc2c(C)n(C)n(-c3ccccc3)c2=O)S(C)(=O)=O)c(C)c1
 : 2.1	-21.9	1.9	9.1	4545	1.4	3.0
CCC(C)n1c(SCC(=O)NC2CCS(=O)(=O)C2)nc2ccccc2c1=O (stereo not given)
 : 1.8	-44.7	3.7	2.5	5393	0.1	0.0
CC1(C)CC(NS(=O)(=O)c2ccc3ccccc3c2)CC(C)(C)N1
 : -3.9	23.7	8.5	1.6	5110	13.6	-3.8
CCN(CC(=O)NCc1cccs1)S(=O)(=O)c1ccccc1Cl
 : 4.3	-17.3	0.0	0.2	5330	7.3	11.3
COc1ccc(N2C(=O)N[C@@H](Cc3ccccc3)C2=O)cc1OC
 : -4.7	9.2	1.2	3.1	3681	-8.6	6.1
O=C(N/N=C/c1ccc[nH]1)c1ccc(Cl)cc1
 : ·	-21.7	9.6	·	2014	·	·
COc1ccccc1C(=O)NCC(=O)OCCCOC(=O)CNC(=O)c1ccccc1OC
 : 2.6	-0.6	-0.9	3.2	5292	3.6	-7.5
CCn1c(=O)n(CCOC)c(=O)c2c3c(sc21)CCCC3
 : 14.9	-7.8	-5.3	7.2	5701	·	·
Cc1cccc(CC2CC(=O)N(c3ncccn3)C2=O)c1 (stereo not given)
 : 6.3	-9.4	7.0	5.0	6491	1.8	1.3
CC(=O)N1CCCc2cc(S(=O)(=O)N3CCCC(C(=O)NCc4ccccc4Cl)C3)ccc21 (stereo not given)
 : 2.3	-19.8	16.5	2.3	5561	4.4	3.8
O=C(Cn1ccc2ccccc2c1=O)NCC(=O)N1CCN(c2ccccc2F)CC1
 : -1.2	-13.4	-14.3	4.1	5885	-4.2	2.6
COc1ccc(C=NNC(=O)Cn2cnc3ccccc3c2=O)cc1OC
 : 3.6	·	·	1.3	·	-5.9	3.3
O=C(CSc1ccc2nnc(CCNS(=O)(=O)c3ccccc3)n2n1)Nc1nc2ccccc2s1
 : ·	-11.7	-5.1	·	2134	·	·
COc1ccc(OCC(=O)Nc2ccc(N3CCN(Cc4ccccc4F)CC3)cc2)cc1
 : 16.5	-6.6	5.8	3.3	3188	0.5	-4.4
N#Cc1c(Cl)nc(NN=Cc2ccccc2)c(Cl)c1Cl
 : 7.3	·	·	2.5	·	2.3	3.2
Cc1nn(C)cc1S(=O)(=O)N1CCCC(C(=O)O)C1 (stereo not given)
 : -1.0	-22.6	-2.7	2.7	4643	12.4	9.5
CC1Cc2ccccc2N1C(=O)CN1CCN(S(=O)(=O)c2cccs2)CC1 (stereo not given)
 : 0.1	-8.8	·	0.6	9062	-9.5	2.0

Next part
Under each structure: Sa ugtP lethal	PrP UTR inh	BJeLR viability	RN4220 kill	Bead autofluor	Mtb hypoxia inh	Mtb hypoxia inh growth
CCN(CC)c1ccc(C(=O)Nn2cnc3ccccc3c2=O)cc1
 : 18.0	-13.9	9.6	-0.5	3517	-0.5	0.4
CCN1CCN(C(=O)c2ccccc2NS(=O)(=O)c2ccc(Cl)cc2)CC1
 : 13.1	-10.3	6.8	8.5	4538	5.0	8.1
Cc1ccccc1N1CCN(C2=NC(=O)/C(=C/c3cn[nH]c3-c3ccccc3)S2)CC1
 : 1.7	-23.7	-0.7	3.0	2023	10.8	-5.8
CCN1CCN(c2cc(C)c3cc(NC(=O)CCC(=O)N4CCN(c5ccccc5)CC4)ccc3n2)CC1
 : 7.5	-18.7	-5.4	1.6	5776	-0.1	-2.3
Cc1ccc([N+](=O)[O-])cc1NC(=O)C(Sc1ccccc1)c1ccccc1 (stereo not given)
 : -15.2	-4.3	-10.3	1.5	2546	·	·
O=S(=O)(Nc1ccc2ccccc2c1)c1ccccc1
 : 2.2	-14.8	-2.0	8.8	1985	14.6	6.2
CCCCOc1cccc(C(=O)Nc2ccccc2N2CCCC2)c1
 : 16.4	-25.0	-0.6	1.6	4835	·	·
Cc1noc(C(=O)N(C)c2ccccc2)c1Cl
 : 2.3	-1.6	4.0	0.9	3578	3.8	-2.5

Sorted by heavy-atom count (largest number first): 6 of the compounds above.
Under each structure: Sa ugtP lethal	PrP UTR inh	BJeLR viability	RN4220 kill	Bead autofluor	Mtb hypoxia inh	Mtb hypoxia inh growth
O=C(CSc1nc2cc3c(cc2c(=O)n1CCC1=CCCCC1)OCO3)NCc1ccco1
 : 0.3	-32.3	-1.2	2.1	8722	2.5	1.9
Cc1ccccc1-n1c(O)c(/C=N/NC(=O)c2ccncc2)c(=O)[nH]c1=O
 : -4.5	-19.5	-1.0	0.4	6238	·	·
CN(C(=S)Nc1ccc(F)cc1)C(c1ccccc1)c1ccccc1
 : 1.4	-2.1	-1.2	-6.7	4260	1.1	0.4
Nc1cc(=O)[nH]c(SCC(=O)N2CCc3ccccc3C2)n1
 : -3.1	-23.5	·	2.3	20269*	6.0	4.6
CCn1c(=O)n(CCOC)c(=O)c2c3c(sc21)CCCC3
 : 14.9	-7.8	-5.3	7.2	5701	·	·
Cc1noc(C(=O)N(C)c2ccccc2)c1Cl
 : 2.3	-1.6	4.0	0.9	3578	3.8	-2.5

Random draw from the library; 4% or so of the library scored in one or more.
